D2 ag: agonists of human D2 dopamine receptor (beta-arrestin); P14416; DiscoveRx PathHunter D2 beta-arrestin, luminescence, 90 min; 100% = 57 uM dopamine signal; activation, % (concentration not given with the values); 360,000 tested, 0.084% active; AID 624465; in the data active = activation above about 40%; inconclusive = about 15% to 40%; inactive = below about 15%; also: compound concentration not given in the record; the text of the record calls up to 30% inactive
Target sequence (P14416 whole entry, looked up): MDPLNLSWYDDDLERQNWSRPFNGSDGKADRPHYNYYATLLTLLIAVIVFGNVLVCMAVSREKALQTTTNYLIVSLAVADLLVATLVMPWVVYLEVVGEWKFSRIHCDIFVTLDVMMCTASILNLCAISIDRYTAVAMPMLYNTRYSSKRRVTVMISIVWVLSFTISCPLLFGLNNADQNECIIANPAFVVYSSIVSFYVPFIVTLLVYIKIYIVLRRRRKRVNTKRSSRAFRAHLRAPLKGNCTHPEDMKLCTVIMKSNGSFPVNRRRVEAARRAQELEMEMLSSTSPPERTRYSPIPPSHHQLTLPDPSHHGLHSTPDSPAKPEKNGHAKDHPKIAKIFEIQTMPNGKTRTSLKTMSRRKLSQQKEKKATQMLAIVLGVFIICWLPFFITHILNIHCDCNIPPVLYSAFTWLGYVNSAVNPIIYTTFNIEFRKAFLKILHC
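DiscoveRx PathHunter D2 beta-arrestin cells (2,100/well) attached overnight, then compound-stimulated 90 min at 37 C in HBSS/10 mM HEPES/0.1% Tween-20 buffer; beta-galactosidase complementation read by luminescence after 1 h at ambient temperature. Dopamine 57 uM final (EC100) as control.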
Six1-Eya2 inh: Six1/Eya2 interaction inhibition; Q15475+O00167; AlphaScreen GST-Six1/His-Eya2 binding, biochemical; active compounds read low; control for the full effect not named in the record; 360,000 tested, 0.56% active; activity change, % (no concentration beside the values); AID 651725; in the data active = activity change below about -65%; inconclusive = about -30% to -65%; inactive = above about -30%; also: % is scaled to controls: 0 for no effect and ±100 for the full control effect
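Compounds are tested against tagged Six1 and Eya2 proteins bridged by glutathione donor and nickel acceptor beads; after a one-hour incubation at 37 °C without light, AlphaScreen emission is recorded.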
D2 potentiator: potentiates the human D2 dopamine receptor allosterically. P14416. 360,000 tested, 0.23% active. DiscoveRx D2 beta-arrestin cells, luminescence, 90 min; 100% = 57 uM dopamine signal. potentiation, % (test concentration not listed); active = potentiation of 50% or more; inconclusive = 30% to 50%; inactive = 30% or less;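 also: compound concentration not given in the record; tested on top of an EC20 dose of dopamine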
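D2 cells co-treated with compound plus 50 nM dopamine (EC20) for 90 min at 37 deg C to detect potentiation. Beta-arrestin recruitment was read as enzyme-fragment luminescence after 1 h at ambient temperature. Full response was set by 57 uM dopamine.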
PINK1 expr mod: changes PINK1 expression; PINK1 immunofluorescence, high-content cytometry, 24 h; Potency, µM (series often up to 76.6 µM), for the others: at the highest dose activation (PINK1 increase), usual class: activators; 410,000 tested, 0.2% active; AID 624263; active = well fitted activation curve with a large enough effect; inconclusive = small, poorly fitted or top-dose-only effect; inactive = flat fitted curve, though single readings scatter; cell line not stated here;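 also: potency is read from the fitted curve at half-maximal effect; % of control where 0% means no effect; nearly all actives have a fitted effect of over 65% in size; a mitochondrial uncoupler was the plate control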
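PINK1 protein, normally rapidly degraded, was detected by immunofluorescence after 24 hour compound treatment of a stable cell line. Titration data (5 concentrations) came from laser-scanning cytometry, with CCCP-treated wells as controls.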
TRPML1 ag: activates the human TRPML1 channel; activation, % (concentration not given with the values); Q9GZU1; TRPML1-expressing cells, Ca2+ dye fluorescence, FDSS; host cell line not named in the record; reference of the full effect not given here; 410,000 tested, 0.12% active; in the data active = activation above about 50%; inconclusive = about 30% to 50%; inactive = below about 30%; also: 0% is about no effect; the text of the record puts the active cut at 80%
Target sequence (Q9GZU1 whole entry, looked up): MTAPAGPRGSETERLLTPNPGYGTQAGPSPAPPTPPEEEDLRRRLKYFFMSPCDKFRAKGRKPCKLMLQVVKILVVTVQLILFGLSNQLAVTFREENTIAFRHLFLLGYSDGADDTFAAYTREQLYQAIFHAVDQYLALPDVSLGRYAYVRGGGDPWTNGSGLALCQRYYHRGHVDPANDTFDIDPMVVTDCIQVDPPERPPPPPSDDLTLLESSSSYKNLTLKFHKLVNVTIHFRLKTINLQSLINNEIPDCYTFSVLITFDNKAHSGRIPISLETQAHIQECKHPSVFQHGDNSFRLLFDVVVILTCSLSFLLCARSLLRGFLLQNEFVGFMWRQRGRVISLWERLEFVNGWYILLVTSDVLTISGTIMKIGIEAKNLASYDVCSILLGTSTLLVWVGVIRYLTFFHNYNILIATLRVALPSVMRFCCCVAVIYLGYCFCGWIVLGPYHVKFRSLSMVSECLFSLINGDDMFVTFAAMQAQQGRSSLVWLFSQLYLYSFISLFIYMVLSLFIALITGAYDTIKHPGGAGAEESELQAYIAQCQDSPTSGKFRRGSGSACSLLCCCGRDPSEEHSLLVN
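TRPML1-DL cells, Tet-induced overnight (~16 h, 37 degrees C), loaded 45-90 min at room temperature with Ca8 no-wash calcium dye plus quencher. FDSS fluorescence: 10 s baseline, compound pin-transfer, 110 s agonist read, then EC80 54-4 (4uM final) and 110 s antagonist read.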
CtBP-E1A blk: CtBP/E1A binding inhibition; activity change, % (concentration not given with the values); 340,000 tested, 0.49% active; AID 651724; AlphaScreen GST-E1A/His-CtBP binding, 1536-well; active compounds read low; control for the full effect not named in the record; in the data active means activity change below about -65%; inconclusive means about -30% to -65%; inactive means above about -30%; also: % is scaled to controls: 0 for no effect and ±100 for the full control effect
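Protein mix (5X: 125 nM each GST-E1A, His-CtBP) was incubated with pinned compound 2 h at 37 deg C in dark, in 50 mM Tris pH 8.0 buffer with 300 mM NaCl. Glutathione donor and nickel acceptor beads followed; AlphaScreen signal read after 1 h.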
An asterisk follows results filed as active; ? = inconclusive; nt = no result given; & = joins results of further samples; [ ] = another dose, or the depositor's remark. Not a hit list. Share with any hit: about 1.3%.

canonical_smiles,PINK1 expr mod,TRPML1 ag,CtBP-E1A blk,D2 ag,D2 potentiator,Six1-Eya2 inh
CC1=C(C(=O)O)N2C(=O)C(NC(=O)c3nn(C)cc3Cl)C2SC1 (configuration not stated),-0.6%,-0.8,-2,-1.1,29,-8
CCC(C)C1=CC(=Nc2c(C)n(C)n(-c3ccccc3)c2=O)C=C(C(C)CC)C1=O (configuration not stated),6.5%,-0.1,2,-2.6,-10,-5
Cc1cccc(OC(C)C(=O)Nc2ccc(S(=O)(=O)N3CCCC3)cc2)c1 (configuration not stated),-0.2%,1.6,-12,-3.9,-11,-12
Cc1ccc(NC(=O)CSc2n[nH]c(-c3ccncc3)n2)c(C)c1,0.1%,0.3,-25,5.0,-4,-4
O=C(Nc1nccs1)c1ccc(NC(=O)c2ccco2)cc1,-1.1%,-0.3,?,4.8,-18,-19
COc1ccc(CN2C(=O)C(CC(=O)NCC3CCCCC3)CC(C(=O)N3CCOCC3)=C2C)cc1 (configuration not stated),-1.0%,-0.8,6,-4.4,3,4
COc1cc(OC)cc(C(=O)NCCNC(=O)c2ccco2)c1,-1.0%,0.5,6,-2.5,-27,22
CN(C)c1cccc(C(=O)NCC(c2ccco2)N(C)C)c1 (configuration not stated),-0.9%,1.1,-3,-4.8,-17,-5
CC1CCCCN1C(=O)CSc1nc(N)nc(N)n1 (configuration not stated),1.0%,0.4,-21,-0.4,-8,4
Cc1cc(C)c(NC(=O)CN2C(=O)NC3(CCOc4ccccc43)C2=O)c(C)c1 (configuration not stated),3.7%,0.1,-2,-3.2,2,0
O=C(COC(=O)c1cn(-c2ccccc2)nc1-c1cccs1)NC1CC1,3.8%,-0.5,0,-4.0,-23,0
OC(COc1ccc(Br)cc1)CN1CCOCC1 (configuration not stated),0.1%,0.0,0,-3.1,-17,9
O=C1COc2ccc(C(=O)COC(=O)c3c(F)cccc3Cl)cc2N1,3.4%,0.0,1,0.6,0,1
CCN(CC(=O)Nc1ccccc1C(F)(F)F)C(=O)c1ccccc1Cc1ccccc1,-0.6%,0.4,-20,-0.9,1,4
CCOC(=O)c1oc2ccc(OC)cc2c1NC(=O)CN1CCN(C)CC1,-1.9%,-0.5,1,-2.0,-12,-3
COc1cccc(C2NC(=O)c3ccccc3O2)c1OCc1ccccc1F (configuration not stated),5.7%,2.6,6,4.0,3,3
CN(C(=O)c1ccc(NC(=O)Cc2cccc(NC(=O)C3CCCN(C(=O)C4CCCCC4)C3)c2)cc1)C1CCCC1 (configuration not stated),-0.2%,0.0,2,-5.2,-3,-2
CC(C)NC(=O)C(=O)Nc1ccc2c(c1)N(S(=O)(=O)c1cccs1)CCC2,3.0%,1.2,0,-4.1,-24,0
Cc1ccc(S(=O)(=O)N2CCC(C(=O)N3CCc4ccccc43)CC2)cc1,0.1%,-0.7,-6,0.4,?,-5
COc1ccc(N(CC(=O)NCc2ccccc2OC)S(=O)(=O)c2c(C)nn(C)c2C)cc1,-0.5%,0.2,4,-4.1,-7,1
COc1cccc(C(=O)O/N=C2\CCS(=O)(=O)c3sccc32)c1,-0.2%,0.1,-16,-6.0,-16,19
O=C(N/N=C/c1ccc(O)c(O)c1)N/N=C/c1ccc(O)c(O)c1,0.1%,-0.2,?,6.7,2,?
C[C@H]1CCC(=O)N([C@H](CN=[N+]=[N-])Cc2ccccc2)CC1,0.0%,-0.6&-1.1,2,-1.6,-9,4
COc1ccccc1NC(=O)C(C)OC(=O)Cn1cnc2c1c(=O)n(C)c(=O)n2C (configuration not stated),-0.1%,0.1,-2,-2.3,7,-16
CCOC(=O)C1=C(C)NC2=C(C(=O)c3ccccc32)C1c1ccc(O)cc1 (configuration not stated),15%,-0.1,-16,-4.0,-22,?
CCCS(=O)(=O)n1nc(-c2ccc(C)cc2)cc1N,-0.2%,-1.3,4,-5.2,-5,-4
COc1ccc(CC(=O)Nc2c3c(nn2-c2cccc(C)c2C)CS(=O)C3)cc1 (configuration not stated),2.7%,-0.1,-1,-2.5,2,4
CCOC(=O)C(=O)c1cn(C2OCC(OC(C)=O)C(OC(C)=O)C2OC(C)=O)c2ccccc12 (configuration not stated),0.0%,2.4,1,0.8,-4,4
COc1ccc(NC(=O)CSc2nnc(Cn3nnc4ccccc43)n2C)cc1,-0.3%,-1.2,6,-1.3,13,1
CCc1nnc(SCC(=O)Nc2ccc3c(c2)OCO3)n1CC,-1.4%,-0.5,9,-3.7,-13,-5

Single values from the results shown:
CCCS(=O)(=O)n1nc(-c2ccc(C)cc2)cc1N | Six1-Eya2 inh: -4
O=C(N/N=C/c1ccc(O)c(O)c1)N/N=C/c1ccc(O)c(O)c1 | PINK1 expr mod: 0.1%

Returning to the listing, starting 4 compounds before the break.
canonical_smiles,PINK1 expr mod,TRPML1 ag,CtBP-E1A blk,D2 ag,D2 potentiator,Six1-Eya2 inh
COc1ccc(CC(=O)Nc2c3c(nn2-c2cccc(C)c2C)CS(=O)C3)cc1 (configuration not stated),2.7%,-0.1,-1,-2.5,2,4
CCOC(=O)C(=O)c1cn(C2OCC(OC(C)=O)C(OC(C)=O)C2OC(C)=O)c2ccccc12 (configuration not stated),0.0%,2.4,1,0.8,-4,4
COc1ccc(NC(=O)CSc2nnc(Cn3nnc4ccccc43)n2C)cc1,-0.3%,-1.2,6,-1.3,13,1
CCc1nnc(SCC(=O)Nc2ccc3c(c2)OCO3)n1CC,-1.4%,-0.5,9,-3.7,-13,-5
COC(=O)c1c(C)[nH]c(O)c1C=Nc1ccc(C#N)cc1,-0.1%,-0.5,nt,-4.7,-5,-16
CC(=O)c1cc(Cl)ccc1OCC(=O)NC1CCCC1,2.3%,-0.8,7,-0.2,-6,-4
COc1cc(/C=N/N=C2/NC(=O)C(Cc3ccc(F)cc3)S2)ccc1O (configuration not stated),4.6%,2.3,18,-1.0,1,0
COc1ccc(N)cc1NC(=O)CN1CCCC1,-0.7%,0.8,4,-0.9,-4,10
Cc1ccc(OCc2nc(-c3ccccc3)no2)c(C)c1,3.1%,1.9,108,-4.8,-14,145
O=C(c1cc2nc(-c3ccco3)cc(C(F)(F)F)n2n1)N1CCc2ccccc2C1,-0.8%,0.4,-5,-2.4,-12,11
O=C1NC(c2ccc3c(c2)OCO3)Oc2ccccc21 (configuration not stated),-1.8%[38.3 µM],-0.1,-16,-3.1,-11,-3
COc1ccc(-n2nnc3c(SCC(=O)NCc4ccco4)ncnc32)cc1,-1.5%,-0.8,-2,-0.1,-1,-25
Cc1cccc(OCCCC(=O)NC(C)C)c1,3.3%,-0.5,3,-14,-7,-6
COc1ccc(NC(=S)N2CCC(NC(=O)c3ccco3)CC2)cc1,-0.3%,0.2,-7,1.4,-2,-10
Cc1cccc(N2CCN(C(=O)CN3C(=O)NC(C)(C)C3=O)CC2)c1C,0.6%,0.4,7,1.8,4,10
Fc1ccc(-c2nc3c(Cl)cc(C(F)(F)F)cn3c2Cc2ccsc2)cc1,5.9%,0.3,26,nt,nt,16
O=C(/C=C/c1ccc2c(c1)OCO2)Nc1nc(-c2ccccc2)cs1,1.0%,1.4,7,-0.2,-9,4
CCN(CC)C(NC(=O)c1ccccc1)C(=O)c1ccccc1 (configuration not stated),-2.9%,0.1,6,3.6,-8,-1
CCCN(C#N)c1nc(NCC)nc(NC(C)C)n1,1.3%,2.0,5,0.9,-14,9
O=C(CSc1ccc2nnc(-c3ccc(Cl)cc3)n2n1)N1CCc2ccccc21,4.1%,-0.1,-7,-0.8,-6,2
Cc1ccc(C(=O)c2ccccc2C(=O)OCC(=O)NCC2CCCO2)cc1 (configuration not stated),0.7%,-0.3,5,-1.0,-5,4
COc1ccc(NC(=O)Cc2ccc(Cl)cc2Cl)cn1,-0.7%,0.7,-1,-2.1,-5,8
Cc1cc(NC(=O)C(C)Oc2ccc(C(C)(C)C)cc2)no1 (configuration not stated),0.8%,0.2,5,4.2,1,2
CCOC(=O)COc1ccc(S(=O)(=O)NCCC2=CCCCC2)cc1,3.1%,-0.4,-2,0.7,7,-7
Fc1ccccc1N1CCN(CCCc2ccccc2)CC1,5.8%,0.2,1,-2.8,-9,-2
O=C(NC1CCCN(Cc2ccc(Cl)cc2)C1)c1ccccc1C(F)(F)F (configuration not stated),2.0%,-0.6,2,0.5,-10,-2
COc1cccc(-c2ccc(C#N)c(OC(=O)c3c(Cl)cccc3Cl)n2)c1,4.7%,0.5,11,-1.8,1,22
CCN1C(c2ccccc2)C(C)C(=O)C(C)C1c1ccccc1 (configuration not stated),2.9%,1.4,8,-0.8,-14,3
COCc1ccc(C(=O)N2CCCC(N3CCN(c4cccc(Cl)c4)CC3)C2)s1 (configuration not stated),1.7%,0.0,0,-1.8,-34,-8
Cc1ccc(NC(CNS(=O)(=O)c2ccc(Cl)cc2)c2ccccc2)cc1 (configuration not stated),-0.1%&-1.2%,5.9&-0.2,-23,-1.2,-9,?
CCCn1c(-c2ccc(OC)cc2)nc2ccccc21,0.5%,0.0,4,10,6,1
Cc1ccc(S(=O)(=O)N/N=C\c2ccc3c(c2)OCO3)c(C)c1,-0.4%,-0.3,1,0.3,-18,2
C=CCC(C)(NCc1ccccc1)c1ccco1 (configuration not stated),-1.2%,0.7,10,-3.5,-18,0
O=C(NCC(O)c1nc2ccccc2[nH]1)c1cc([N+](=O)[O-])ccc1F (configuration not stated),-1.6%,-0.5,-6,0.6,-1,3
O=C1ON=C(c2ccc(Cl)c([N+](=O)[O-])c2)/C1=C/c1cccc([N+](=O)[O-])c1O,1.4%,1.3,0,7.1,-3,3
CC(C)(C)c1ccc(C(=O)NCc2ccco2)cc1,1.8%,4.2,-1,-4.6,-4,-1
Cc1ccc2c(c1)/C(=C/c1ccco1)C(=O)N2,1.2%,0.7,0,4.4,-4,-16
COc1ccc(CCNc2ncnc3c2c(C)c(C)n3CCO)cc1OC,1.5%,1.2,nt,6.5,-6,-9
CCC(CC)C(=O)N1CC(=O)Nc2ccc(F)cc2C1c1ccc(F)cc1 (configuration not stated),8.1%,-0.7,4,-3.3,-9,1
Oc1ccccc1Nc1nc(-c2ccccc2O)nc2ccccc12,?,0.6,1,13,10,5
O=C(NC12CC3CC(CC(C3)C1)C2)c1cccc(OC(F)F)c1,-1.0%,0.1,3,0.8,-7,11
COc1ccccc1NS(=O)(=O)c1cc(-c2cc(C)no2)ccc1OC,4.9%,-0.2,-21,-1.3,-11,1
O=C(COC(=O)c1ccccc1OCc1ccc(Cl)cc1)NCC1CCCO1 (configuration not stated),0.7%,-0.9,1,-1.7,-3,11
